# High-throughput results as filed in PubChem.
# E coli growth – inhibitors of Escherichia coli growth | OD600 absorbance (concentration not given with the values) | OD600, 23 h; stronger effect = lower value | hit rate 0.21% among 330,000;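 active means OD600 absorbance below the run mean of sample wells minus 3.6 SD, in any replicate, cut at about 0.56 in these data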;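 further: stock transfer was 300 nL into about 60 µL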
# B2AR ag – agonists of human beta-2 adrenergic receptor inducing internalization. P07550. Am2.2-beta2AR cells, FAP receptor internalization, flow cytometry; reference of the scale not given here. response, % (concentration not given with the values). hit rate 0.43% among 340,000. AID 504454;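 active means response above a set limit, near 3 SD of response in nonfluorescent compounds, cut at about 42% in these data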;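 further: stock transfer was 100 nL into about 11 µL; a reference agonist was the positive control; negative values mostly stem from fluorescent compounds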
# Target sequence (P07550 whole entry, looked up): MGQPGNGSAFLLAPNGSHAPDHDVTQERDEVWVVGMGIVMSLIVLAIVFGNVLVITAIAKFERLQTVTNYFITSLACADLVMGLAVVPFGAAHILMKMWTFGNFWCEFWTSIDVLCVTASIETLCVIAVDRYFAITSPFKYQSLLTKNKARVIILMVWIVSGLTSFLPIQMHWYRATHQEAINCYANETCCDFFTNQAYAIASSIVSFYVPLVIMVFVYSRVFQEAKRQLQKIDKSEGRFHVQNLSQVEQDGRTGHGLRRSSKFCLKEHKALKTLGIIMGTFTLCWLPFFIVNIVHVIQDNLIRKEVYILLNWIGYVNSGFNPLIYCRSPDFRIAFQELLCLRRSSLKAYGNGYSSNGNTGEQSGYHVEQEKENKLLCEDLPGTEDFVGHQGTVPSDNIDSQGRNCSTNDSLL
# LANA-H2A inh – blocks KSHV LANA binding to histone H2A/H2B | inhibition, % (test concentration not listed) | hit rate 0.6% among 320,000 | Q9QR71 | cell-free LANA-H2A/H2B peptide, fluorescence polarization; in the data active means inhibition mostly above about 10%, no sharp cut-off; inactive means mostly below about 6.7%;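 further: stock transfer was 7.5 nL into about 10 µL; 0% = median of vehicle wells and 100% = median of positive control wells; one replicate is shown; the record names a cut of 25% in any replicate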
# Vif A3G – HIV-1 Vif–A3G interaction blockers – biochemical, TR-FRET, GST-Vif 1-94, biotin-A3G peptide, dose response retest, primary screen (AID 1117319); one-dose inhibition, %; IC50 in µM for titrated hits; TR-FRET GST-Vif / biotin-A3G peptide binding; higher % means a stronger effect; test concentration not given here; strong numbers were not always called active; hit rate 0.57% among 260,000;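 active means above the screen mean plus three standard deviations and confirmed in dose response; inconclusive means results disagree or hit not tested in dose response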;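 further: Vif residues 1-94 fused to GST binding biotinylated APOBEC3G peptide 110-148; 0% = full assay without inhibitor and 100% = GST in place of GST-Vif; retest series ran down from 100 µM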
# UCH37 DUB inh – inhibitors of human deubiquitinating enzyme UCH37 | Q9Y5K5 | purified proteasome/UCH37, Ub-AMC cleavage fluorescence | inhibition, % (no concentration beside the values) | hit rate 0.33% among 330,000 | AID 588478;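 active means mean of two replicates above 20%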;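 further: 0% = compound-free wells with enzyme and 100% = wells lacking proteasome; stock transfer was 100 nL into about 20 µL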
# Target sequence (Q9Y5K5 whole entry, looked up): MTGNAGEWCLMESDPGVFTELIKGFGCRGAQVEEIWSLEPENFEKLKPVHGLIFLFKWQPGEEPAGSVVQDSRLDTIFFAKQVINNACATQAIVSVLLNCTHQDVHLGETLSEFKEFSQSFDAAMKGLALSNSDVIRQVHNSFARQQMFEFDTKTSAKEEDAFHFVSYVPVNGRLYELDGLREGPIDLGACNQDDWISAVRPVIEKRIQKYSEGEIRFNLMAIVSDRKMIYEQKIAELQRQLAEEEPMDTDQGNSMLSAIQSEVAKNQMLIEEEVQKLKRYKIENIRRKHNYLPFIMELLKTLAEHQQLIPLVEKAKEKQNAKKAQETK
#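 Material: Human UCH37 enzyme supplied as purified proteasome complex | Schedule: 30 min compound-proteasome preincubation then 25 min substrate reaction, room temperature | Detection: AMC fluorescence from Ub-AMC cleavage, excitation 355 nm, emission 460 nm | Benchmarks: Wells without proteasome as full block, compound-free enzyme plus substrate as uninhibited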
# HNF4A DNA FP – change in binding of human HNF4 alpha to DNA | hit rate 0.3% among 360,000 | HNF4a-FITC DNA binding, fluorescence polarization, 1 h | activity change, % at 10 µM | P41235; in the data active means activity change above about 30%, passing the limit was not always enough;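 further: controls were the assay level and a saturating level of protein; the project sought stronger binding though the title names inhibitors; some compounds called inactive have numbers as strong as hits; positive values seem to mean higher polarization but the record does not say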
# Bfl-1 A1 inh – inhibitors of the anti-apoptotic protein A1, read as caspase activation; caspase activation, % (no concentration beside the values); AID 2462; MEF A1-2A-BIM cells, Caspase-Glo 3/7 luminescence, 3 h; percent of clofoctol response, vehicle zero; hit rate 0.066% among 330,000;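 active means over half of replicate activation scores above 10%, or exactly half above 10 with the replicate mean above 10; inconclusive means replicate mean below 10 yet half the replicates above 10; inactive means over half of replicates below 10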;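 further: wells of about 30 µL received 50 nL stock; many hits fall short of the cut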
# Active calls of the source: *; i = inactive; ? = inconclusive; nt = no result given; & = joins results of further samples.
compound,Bfl-1 A1 inh,HNF4A DNA FP,Vif A3G,LANA-H2A inh,UCH37 DUB inh,E coli growth,B2AR ag
CC(C)(C)c1cn(-c2ccc(Cl)cc2)c(=S)[nH]1,-0.2,2.6,3%,4.4,2.0,0.69,1
CCCC1CC(CSC(=N)N)OC1=O (stereo unspecified),-0.4,-2.8,-3%,3.0,2.9,0.64,1
Cc1ccc(-n2c3c(cc(C(=O)NCc4ccco4)c2=O)C(=O)CC(C)(C)C3)cc1,2.0,0.6,3%,-1.7,-2.2,0.71,-2
NC(=O)c1ccc2c(=O)n3c(-c4cc(Cl)c(N)c(Cl)c4)csc3nc2c1,-0.4,1.6,1%,4.4,4.6,0.66,-8
Cc1ccoc1C(=O)Nc1cccc(Oc2ccccc2)c1,-4.3,0.9,16%,3.0,0.1,0.69,6
CCOC(=O)CC(=O)c1cc(OC)c(OC)c(OC)c1,-0.2,6.3,0%,2.9,3.5,0.66,4
COC(=O)c1cn(C(=O)c2cc(OC)cc(OC)c2)c2ccccc12,-0.2,-0.9,nt,-1.5,1.4,0.66,6
O=C(COc1ccccc1F)NNC(=O)c1cc(Br)ccc1Cl,1.3,2.9,nt,-1.2,4.6,0.68,1
CC(=O)Nc1sc2c(c1C(c1ccc(F)cc1)N1CCOCC1)CCCC2 (stereo unspecified),0.9,-3.2,0%,-2.5,4.3,0.72,2
Cc1cccn2c(CNCCc3ccccn3)c(C(=O)N3CCOCC3)nc12,-0.3,6.3,6%,29*,-3.5,0.7,1

# Overlap with the part before: two compounds; new compounds follow.
compound,Bfl-1 A1 inh,HNF4A DNA FP,Vif A3G,LANA-H2A inh,UCH37 DUB inh,E coli growth,B2AR ag
CC(=O)Nc1sc2c(c1C(c1ccc(F)cc1)N1CCOCC1)CCCC2 (stereo unspecified),0.9,-3.2,0%,-2.5,4.3,0.72,2
Cc1cccn2c(CNCCc3ccccn3)c(C(=O)N3CCOCC3)nc12,-0.3,6.3,6%,29*,-3.5,0.7,1
CC1=[N+](CC(=O)NC(C)(C)C)CCc2ccccc21,0.0,0.8,-3%,-4.3,-0.9,0.67,2
COc1ccc2nc(NC(=O)CCn3cccc3)sc2c1,0.1,5.0,8%,-1.4,-2.9,0.71,-6
COc1ccc(/C=N/n2cnn(Cc3ccccc3Cl)c2=S)cc1,-0.1,8.3,nt,-4.0,nt,nt,1
Cc1cc(C)cc(C(=O)OCC(=O)Nc2ncccn2)c1,-0.9,-3.5,nt,5.1,-7.0,0.7,6
CCNC(=O)CC1C(=O)N(c2ccc(F)cc2)C(=O)N1Cc1ccccn1 (stereo unspecified),0.3,0.3,2%,-0.1,0.4,0.74,3
COCCn1c(=S)[nH]c2cc(C(=O)N(CCO)Cc3ccccc3)ccc2c1=O,0.6,-1.4,nt,0.4,1.5,0.64,0
O=S1(=O)N=C(N(CCO)/N=C/c2ccncc2)c2ccccc21,0.5,0.0,4%,-8.5,nt,nt,5
Cc1cc(C(=O)CSc2nnc(CCC(N)=O)n2C)c(C)n1C1CC1,nt,-1.3,-3%,nt,1.7,0.72,-7
O=C(O)/C=C/C(=O)Nc1cccc(C(F)(F)F)c1,0.5,3.4,nt,-0.3,2.6,0.7,5
CCOc1ccc(N2C(=O)CC(SCc3nc4ccccc4[nH]3)C2=O)cc1 (stereo unspecified),0.1,1.2,nt,-1.0,4.1,0.64,-1
O=C(NCc1ccccc1)C1CCCN(C(=O)c2ccc(F)cc2)C1 (stereo unspecified),nt,4.6,1%,nt,1.6,0.68,-10
O=C(OCC(=O)N1CCc2ccccc2C1)c1ccc(F)cc1Cl,0.4,1.5,-5%,0.2,0.2,0.64,-1
O=C1/C(=C\c2ccsc2)NC(=S)N1c1ccccc1,-0.8,-3.2,8%,-0.8,11,0.65,2
Cc1noc(C)c1COc1ccc(C(=O)N2CCN(S(=O)(=O)c3cccc(F)c3)CC2)cc1,0.2,5.4,0%,-2.2,-0.2,0.71,4
CCCOc1ccc(C(=O)NC(=S)NNC(=O)c2c(-c3ccccc3)noc2C)cc1,-0.5,0.4,-2%,-1.4,2.8,0.67,2
O=C(CN1CCc2ccccc2C1)Nc1cccc(S(=O)(=O)N2CCCC2)c1,0.4,1.2,nt,-0.2,1.1,0.71,-1
Cc1cc(O)c(C(C)C)cc1NC(=O)Nc1cccc2ccccc12,0.5,3.1,4%,-0.1,-0.6,0.71,3
CC(=O)SC1CC2=CC(=O)CCC2(C)C2CCC3(C)C(CCC34CCC(=O)O4)C12 (stereo unspecified),1.6,0.1,6%,-16,4.0,0.7,-1
COc1cc(C(=S)N2CCCC2)cc(Cl)c1O,0.2,0.3,4%,15,4.7,0.68,-6
O=C(Nc1nc(-c2ccc(F)cc2)cs1)c1ccc(N2C(=O)CCC2=O)cc1,1.3,-0.5,-10%,-5.3,4.7,0.72,-12
O=C(c1ccc2[nH]c(=O)c(=O)[nH]c2c1)N1CCN(c2ccccc2)CC1,0.5,-2.6,nt,1.4,-0.9,0.67,3
CN1CCN(S(=O)(=O)c2ccc(NC(=O)Cc3ccc([N+](=O)[O-])cc3)cc2)CC1,0.9,-1.6,nt,0.7,2.1,0.64,-10
CCCCCCCCN1[C@@H](CC(=O)O)c2cc(C(F)(F)F)ccc2S1(=O)=O,0.7,0.0,nt,0.0,0.7,nt,-5
CCOC(=O)C(NCc1ccccn1)(NC(=O)c1cccnc1)C(F)(F)F (stereo unspecified),0.6,-1.2,5%,-6.3,2.7,0.78,0
COc1ccc(N/C=C(\C(C)=O)c2ccc(OC)c(OC)c2)cc1OC,0.0,0.3,21%,-2.3,10,0.67,0
O=C(Nc1ccc(C(=O)N2CCOCC2)cc1)Nc1cccc2ccccc12,-0.4,0.4,?,7.6,0.9,0.73,17
CCN(CC(=O)N1CCCCCC1)S(=O)(=O)c1ccc(Cl)cc1,0.7,-1.7,-6%,3.9,1.1,0.72,-7
O=C(COC(=O)/C=C/c1ccc(Cl)cc1)Nc1ccc2[nH]c(=O)[nH]c2c1,-0.4,3.6,0%,4.3,4.4,0.69,-7
CCC(C)Sc1cc(C)c(C#N)c2nc3ccccc3n12 (stereo unspecified),-0.6,-2.1,-3%,-2.4,-32,0.73,-12
c1ccc2c(c1)[nH]c1c(NCC3CCCO3)ncnc12 (stereo unspecified),-0.5,0.0,26%,12,-6.6,0.72,-3
O=C(/C=C/c1ccco1)NC(=S)Nc1ccccc1O,-1.1,-0.1,?,2.4,6.3,0.69,3
CC(C)(C)c1nc2ccccc2c(=O)n1N1C(=O)c2ccccc2C1=O,0.1,-2.4,11%,-0.1,4.6,0.75,20
O=C(N/N=C/c1ccc2c(c1)OCO2)c1ccc2c(c1)OCCO2,0.9,1.2,3%,-0.6,nt,nt,3
O=S(=O)(NCc1ccccc1F)NCc1ccccc1F,0.3,3.1,-7%,11,3.5,0.69,2
Cc1cnc(C(=O)OCC(=O)Nc2ncc(Cl)cc2Cl)cn1,1.2,-2.0,11%,-5.1,-0.4,0.7,4
CN(Cc1ccccc1)C(=O)COC(=O)c1cc(=O)c2ccccc2o1,-0.7,-0.8,-3%,-1.9,4.8,0.72,-2
CSc1ccc(C(=S)N2CCCCCC2)cc1,-0.8,-4.1,-9%,3.4,3.7,0.59,2
CCN(CC)S(=O)(=O)c1ccc(C)c(NC(=O)CSc2ncc(C(F)(F)F)cc2Cl)c1,0.3,0.4,7%,-1.8,5.4,0.7,-8
c1ccc(Cn2nnnc2C(c2ccccn2)N2CCN(c3ccccc3)CC2)cc1 (stereo unspecified),0.1,3.9,-5%,-1.6,-0.3,0.68,0
Cc1ccc2occ(C(=O)c3ccco3)c(=O)c2c1,-0.3,1.0,-4%,1.5,4.1,0.65,2
Cc1cc(C)c(S(=O)(=O)N2CCN(C(=O)C3CC3)CC2)c(C)c1,nt,-1.5,-11%,nt,0.5,0.63,2
COc1ccccc1CCN=C(N)NS(=O)(=O)c1ccccc1F,0.4,1.7,nt,0.5,-2.0,0.68,1
CC(=O)NCCC(=O)Nc1cc(S(=O)(=O)N2CCOCC2)ccc1Oc1ccccc1,0.0,-0.9,-3%,0.2,3.5,0.74,9
Cn1c(C(=O)N2CCOCC2)cc2c(=O)n3ccccc3nc21,0.3,0.1,nt,-2.2,i,0.71,0
CCCCCC(=O)Nc1ccc2oc(-c3cccnc3)nc2c1,-1.0,-3.0,20%&-10%,-3.3,-97,0.68,-1
Cc1cccc(C(=O)NCC(=O)N2CCN(S(=O)(=O)c3ccc4c(c3)OCCO4)CC2)c1,0.5,5.1,-20%,5.9,2.6,0.68,1
O=C(O)C1CC=CCC1C(=O)Nc1cccnc1 (stereo unspecified),0.2,-1.1,4%,2.3,4.0,0.64,2
COc1cc(OC)cc(C(=O)NC(=S)N2CCCCCC2)c1,-1.1,1.5,3%,1.2,1.8,0.71,8
O=C(CCC1CCCN(C2C3CC4CC(C3)CC2C4)C1)NCc1ccc(F)c(F)c1 (stereo unspecified),0.1,1.4,?,-1.6,-1.0,0.68,-6
O=C(COC(=O)C12CC3CC(CC(C3)C1)C2)NNC(=O)c1ccccc1,-0.3,-3.5,nt,-7.8,2.7,0.68,1

# New compounds follow.
compound,Bfl-1 A1 inh,HNF4A DNA FP,Vif A3G,LANA-H2A inh,UCH37 DUB inh,E coli growth,B2AR ag
Cc1[nH]c(C)c(S(=O)(=O)NCc2ccc(OC(C)C)cc2)c1C(=O)N1CCCC1,-2.1,-1.2,-11%,1.3,0.9,0.66,3
Cc1nn(Cc2ccccc2)c(C)c1CCC(=O)O,-0.1,-0.9,0%,-2.0,3.2,0.7,7
Cc1ccc(OCC(=O)NNC(=O)c2cc3ccccc3o2)cc1C,-1.2,-5.2,-1%,2.4,0.5,0.75,6
CCCCn1c(N)c(N(CC(C)C)C(=O)c2cccc(S(=O)(=O)N3CC(C)OC(C)C3)c2)c(=O)[nH]c1=O (stereo unspecified),0.3,-0.6,-7%,-1.5,2.4,0.62,-2
COc1cccc2c(=O)n(CC(=O)NC3CCCC3)ccc12,-0.2,0.4,?,4.6,-0.4,0.69,-9
CC(C)(C)OC(=O)N1CCC(c2c(C(=O)O)cnn2-c2ccccc2)CC1,-0.3,1.8,1%,0.1,0.6,0.65,2
O=C(NC1CC2CCCC(C1)N2C(=O)Nc1ccccc1)c1ccncc1 (stereo unspecified),1.1,1.5,9%,1.8,2.9,0.72,-1
CCC1(c2ccc(F)cc2)NC(=O)N(CC(=O)c2cc(C)n(C3CC3)c2C)C1=O (stereo unspecified),0.3,-2.8,8%,3.0,6.1,0.71,1
CCCOC(=O)/C(=C\C=C\c1ccco1)NC(=O)c1ccccc1,-0.7,8.4,9%,2.9,2.0,nt,-1
COC(=O)c1ccc(-c2ccc(C(=O)N3CCCN(C)CC3)cc2)cc1,nt,nt,?,nt,0.0,0.76,nt
Cc1ccc(-c2nn3c(C)nnc3c3ccccc23)cc1S(=O)(=O)NCc1ccccc1,0.4,1.4,3%,3.1,-6.3,0.66,-4
Cc1ccc(C(C(=O)NCc2ccco2)N(C(=O)CNC(=O)c2cccs2)c2c(C)cc(C)cc2C)cc1 (stereo unspecified),-0.1,3.6,-4%&-3%,0.2,1.1,0.71,-11
Cc1c(C(=O)N2CCC(Cc3ccccc3)CC2)sc2ncnc(N3CCC(C)CC3)c12,-0.8,-1.4,-13%,-0.4,3.3,0.7,-12
O=C(Nc1ccc(S(=O)(=O)N2CCCC2)cc1)N1c2ccccc2Sc2ccccc21,0.5,-0.2,1%,0.5,5.0,0.7,16
